# TRPML1 inh = human mucolipin-1 channel inhibition. TRPML1-inducible cells, Ca2+ dye fluorescence, FDSS; stronger effect = lower value; inhibition of EC80 agonist-evoked calcium signal. Q9GZU1. activity change, negative = inhibition, % (test concentration not listed). hit rate 0.02% among 390,000. AID 624415; in the data active means activity change below about -50%; inconclusive means about -30% to -50%; inactive means above about -30%;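 note: stimulus is agonist 54-4 at its EC80 concentration; % is set by controls: 0 for no effect and ±100 for the full control effect; compound concentration not given in the record; the text of the record puts the active cut at -80%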
# Target sequence (Q9GZU1 whole entry, looked up): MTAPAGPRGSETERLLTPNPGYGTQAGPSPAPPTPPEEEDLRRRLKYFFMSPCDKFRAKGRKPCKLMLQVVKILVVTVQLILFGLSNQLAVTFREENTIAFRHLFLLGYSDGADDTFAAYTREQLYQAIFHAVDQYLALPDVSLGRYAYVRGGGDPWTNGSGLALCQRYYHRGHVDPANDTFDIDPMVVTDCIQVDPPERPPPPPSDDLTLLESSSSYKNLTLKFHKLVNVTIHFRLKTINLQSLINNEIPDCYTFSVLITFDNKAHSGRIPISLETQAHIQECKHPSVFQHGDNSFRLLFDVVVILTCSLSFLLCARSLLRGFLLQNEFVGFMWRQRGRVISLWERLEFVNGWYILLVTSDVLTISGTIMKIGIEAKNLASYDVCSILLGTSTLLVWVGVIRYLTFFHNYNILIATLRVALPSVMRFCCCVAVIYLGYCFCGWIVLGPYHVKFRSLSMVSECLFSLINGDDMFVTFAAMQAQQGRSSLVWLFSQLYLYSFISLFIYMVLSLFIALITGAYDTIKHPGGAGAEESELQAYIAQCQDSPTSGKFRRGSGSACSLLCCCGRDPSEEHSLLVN
#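 TRPML1-DL cells, Tet-induced overnight (~16 h, 37 °C) at 1,500 cells/well, were loaded with Ca8 no-wash dye plus quencher for 45-90 min at room temperature. Compounds were pinned during FDSS kinetic reading; agonist 54-4 at EC80 (4 uM final) then added.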
# CtBP-E1A inh = blocks the CtBP interaction with E1A; AID 651724; activity change, % (concentration not given with the values); AlphaScreen GST-E1A/His-CtBP binding, 1536-well; stronger effect = lower value; control for the full effect not named in the record; hit rate 0.49% among 340,000; in the data active means activity change below about -65%; inconclusive means about -30% to -65%; inactive means above about -30%; note: % is set by controls: 0 for no effect and ±100 for the full control effect
#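 AlphaScreen with 125 nM GST-E1A and 125 nM His-CtBP (5X stocks) in Tris pH 8.0, 300 mM NaCl, BSA, Tween 20, TCEP. Compounds preincubated 2 h at 37 deg C, then glutathione donor/nickel acceptor beads added for 1 h at 37 deg C in dark.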
# PINK1 expr mod = changes PINK1 expression | hit rate 0.2% among 410,000 | PINK1 immunofluorescence, high-content cytometry, 24 h | Potency, µM (top dose mostly 76.6 µM), without a hit: top-dose activation (PINK1 increase), usual class: activators | AID 624263; active = well fitted activation curve with a large enough effect; inconclusive = small, poorly fitted or top-dose-only effect; inactive = flat fitted curve, though single readings scatter; cell line not stated here;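 note: potency is the fitted concentration of half-maximal effect; % of control where 0% means no effect; nearly all actives have a fitted effect of over 65% in size; a mitochondrial uncoupler was the plate control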
#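 Fluorescence from anti-PINK1 antibody, together with nuclear and cell stains, was scanned on a laser-scanning cytometer. Before staining, stable-line cells were incubated 24 hours with compounds at 5 concentrations; primary antibody 12 h at 10 degrees C.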
# TRPML1 agonist = agonists of human TRPML1 channel. TRPML1-expressing cells, Ca2+ dye fluorescence, FDSS; host cell line not named in the record; reference of the full effect not given here. activation, % (no concentration beside the values). hit rate 0.12% among 410,000. AID 624414; in the data active = activation above about 50%; inconclusive = about 30% to 50%; inactive = below about 30%; note: 0% is about no effect; the text of the record puts the active cut at 80%
#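 Kinetic FDSS Ca2+ read in Tet-induced TRPML1-DL cells (ABD Ca8 dye plus quencher, 45-90 min RT loading): baseline, then compound, then 110 s agonist window; EC80 agonist 54-4 at 4uM final added afterwards for a 110 s antagonist window.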
# D2 agonist = human D2 receptor agonism in beta-arrestin assay. AID 624465. P14416. hit rate 0.084% among 360,000. activation, % (no concentration beside the values). DiscoveRx PathHunter D2 beta-arrestin, luminescence, 90 min; 100% = 57 uM dopamine signal; in the data active = activation above about 40%; inconclusive = about 15% to 40%; inactive = below about 15%; note: compound concentration not given in the record; the text of the record calls up to 30% inactive
# Target sequence (P14416 whole entry, looked up): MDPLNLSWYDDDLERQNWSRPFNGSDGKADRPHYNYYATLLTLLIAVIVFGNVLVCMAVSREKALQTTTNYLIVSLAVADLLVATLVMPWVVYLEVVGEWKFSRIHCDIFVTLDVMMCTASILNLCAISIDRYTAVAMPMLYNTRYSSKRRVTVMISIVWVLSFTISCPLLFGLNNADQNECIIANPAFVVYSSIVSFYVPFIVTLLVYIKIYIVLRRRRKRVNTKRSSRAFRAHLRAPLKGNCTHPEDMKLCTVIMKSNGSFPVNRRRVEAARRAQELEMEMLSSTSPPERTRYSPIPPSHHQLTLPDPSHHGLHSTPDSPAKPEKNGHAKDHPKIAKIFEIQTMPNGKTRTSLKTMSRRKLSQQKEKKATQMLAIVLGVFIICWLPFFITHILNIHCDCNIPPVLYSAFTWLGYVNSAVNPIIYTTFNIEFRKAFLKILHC
#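 Agonist mode: compounds alone added to overnight-plated D2 PathHunter cells for 90 min at 37 C, with 57 uM final dopamine (EC100) defining full response. Beta-arrestin recruitment detected by chemiluminescent reagent, read after 1 h at ambient temperature.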
# Six1-Eya2 blk = Six1/Eya2 interaction inhibition. activity change, % (test concentration not listed). AlphaScreen GST-Six1/His-Eya2 binding, biochemical; stronger effect = lower value; control for the full effect not named in the record. Q15475+O00167. hit rate 0.56% among 360,000; in the data active = activity change below about -65%; inconclusive = about -30% to -65%; inactive = above about -30%; note: % is set by controls: 0 for no effect and ±100 for the full control effect; compound concentration not given in the record
#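 Compounds are tested against tagged Six1 and Eya2 proteins bridged by glutathione donor and nickel acceptor beads; after a one-hour incubation at 37 °C without light, AlphaScreen emission is recorded.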
# * hit, by the source's call; ? = inconclusive; nt = not tested or not shown; [ ] = remark or other dose.
Structure	PINK1 expr mod	TRPML1 inh	CtBP-E1A inh	TRPML1 agonist	Six1-Eya2 blk	D2 agonist
CCCNC(=O)N1CCN(S(=O)(=O)c2ccc3c(c2)OCCO3)CC1	0.4%	7	12	-0.2	-2	-7.6
Cc1ccc(C(=O)Nc2nnc(S(=O)(=O)N3CCCc4ccccc43)s2)cc1	1.3%	14	nt	-0.7	nt	nt
O=C(Cc1ccc(S(=O)(=O)N2CCCC2)s1)N1CCOCC1	1.2%	6	9	-0.2	0	-4.5
C=CCn1c(COc2cc(C)ccc2C(C)C)nnc1SCC(=O)c1c(N)n(C)c(=O)n(C)c1=O	8.4%	?	-2	-0.4	7	-0.6
Cc1nc2ccccn2c1-c1csc(Nc2ccc(C(=O)O)cc2)n1	8.9%	-22	-30	1.0	-17	5.1
Cc1cc(C)cc(NC(=O)C2CCN(c3nnc(-n4c(C)ccc4C)s3)CC2)c1	-0.5%	27	nt	0.4	nt	nt
CCN1CCN(C(c2cccc(OC)c2OC)c2nnnn2Cc2ccco2)CC1 (centres undefined)	0.8%	-1	5	0.0	7	-3.3
C/C(=N/NC(=O)c1ccc(Br)o1)c1cccc(NC(=O)c2ccc(C)o2)c1	3.1%	20	-2	-0.1	-8	-4.2
CC(C)Cn1c(N)c(C(=O)COC(=O)c2cnc(Cl)c(Cl)c2)c(=O)n(C)c1=O	-1.3%	-18	-17	4.8	-19	-0.4
CN(C)c1ccc(CNn2cnnc2SCc2ccc(F)cc2)cc1	12%[38.3 µM]	10	-4	0.0	-4	1.4
NC(=O)CC[C@@H]1NC(=O)[C@H](CO)NC(=O)c2cc([N+](=O)[O-])cc(I)c2NCCCC[C@@H](C(N)=O)NC(=O)[C@H](Cc2ccc(O)cc2)NC1=O	-1.8%	33	-2	-0.4	-10	2.5
S=C(Nc1ccccc1Cl)N1CCCC1	-0.6%	-14	nt	0.3	0	-0.7
O=C(OCC(=O)N1CCCC1)c1ccc(O)cc1	3.4%	12	5	8.9	-9	-2.0
Cn1c(=O)[nH]c(=O)c2c1nc(NCCCn1ccnc1)n2CCOc1ccccc1	-0.5%	0	-2	-0.5	3	0.1
COc1ccc(CCNC(=O)c2c(O)nc3cc(C)ccn3c2=O)cc1OC	2.0%	-16	nt	-0.8	nt	nt
CO/N=C/c1cccn1-c1nccc(OC)c1C#N	-2.3%	77	-10	0.1	11	1.0
CCN(CC)S(=O)(=O)c1ccc(S(=O)(=O)N2CCC(N3CCCCC3)CC2)cc1	-0.5%	28	3	-0.3	17	-4.1
O=C(NNC(=O)c1cc(-c2cccc(Br)c2)nc2ccccc12)c1csc(N2CCOCC2)n1	0.5%	-8	-1	-0.2	-13	-5.7
O=C(Nc1cccc2ncccc12)c1ccc2c(c1)OCCO2	2.0%	-8	29	0.0	11	0.2
COC(=O)c1cccc(NC(=O)c2nsc3ccccc23)c1	-1.0%	30	nt	3.9	nt	nt
CCCc1nnc(NC(=O)CCC(=O)NCCc2ccc(Cl)cc2)s1	-0.3%	2	-8	0.0	5	-10
O=C(Nc1ccc(Cl)cc1)OCc1ccccn1	-1.1%	36	1	0.9	0	-3.8
CNC(=O)Cn1nc(C)c(S(=O)(=O)N2CCOCC2)c1C	3.9%	-12	nt	-0.5	5	-0.1
CC1=CC(C)(C)NC(=S)N1c1ccc(Cl)cc1	1.3%	-3	-16	2.6	-10	-2.7
CCOC(=O)c1cc(-c2ccccc2)sc1NC(=O)C(C)Sc1nnc(N)s1 (centres undefined)	-0.6%	31	-6	0.3	-11	-5.6

# Overlap with the part before: 7 entries; new compounds follow.
Structure	PINK1 expr mod	TRPML1 inh	CtBP-E1A inh	TRPML1 agonist	Six1-Eya2 blk	D2 agonist
O=C(Nc1cccc2ncccc12)c1ccc2c(c1)OCCO2	2.0%	-8	29	0.0	11	0.2
COC(=O)c1cccc(NC(=O)c2nsc3ccccc23)c1	-1.0%	30	nt	3.9	nt	nt
CCCc1nnc(NC(=O)CCC(=O)NCCc2ccc(Cl)cc2)s1	-0.3%	2	-8	0.0	5	-10
O=C(Nc1ccc(Cl)cc1)OCc1ccccn1	-1.1%	36	1	0.9	0	-3.8
CNC(=O)Cn1nc(C)c(S(=O)(=O)N2CCOCC2)c1C	3.9%	-12	nt	-0.5	5	-0.1
CC1=CC(C)(C)NC(=S)N1c1ccc(Cl)cc1	1.3%	-3	-16	2.6	-10	-2.7
CCOC(=O)c1cc(-c2ccccc2)sc1NC(=O)C(C)Sc1nnc(N)s1 (centres undefined)	-0.6%	31	-6	0.3	-11	-5.6
CCOC(=O)c1ccc(-c2ccc3c(=O)c4ccccc4n(C)c3c2)cc1F	2.1%	1	3	-0.9	7	-2.2
CCC(=O)c1ccccc1OCCCN1CCC(Cc2ccccc2)CC1	?	9	-3	0.9	-12	0.8
CC(C)NC(=O)CSCc1c(Cl)cccc1Cl	-1.5%	-2	-2	-1.1	-1	-2.0
COc1cccc(CNC(=O)c2ccc(-n3c(C)cc4c3CCCC4)cc2)c1	1.0%	-16	nt	0.9	nt	nt
CCC12CN3CC(CC)(CN(C1)C3c1ccc([N+](=O)[O-])o1)C2=O (centres undefined)	-1.4%	27	0	0.5	10	-4.9
CC(C)CN(C(=O)CCc1ccccc1Cl)c1c(N)n(Cc2ccccc2)c(=O)[nH]c1=O	-1.3%	3	2	0.3	3	-0.4
CC(=O)N(Cc1cccnc1)c1nc2c(C)cccc2s1	-8.1%	-7	nt	0.2	nt	nt
CCOC(=O)c1c(NC(=O)C(C)Sc2cccc[n+]2[O-])sc2c1CCN(Cc1ccccc1)C2 (centres undefined)	1.4%	-1	0	2.2	-8	-5.5
O=C(CSc1nnc(-c2ccco2)n1Cc1ccccc1)c1ccccc1	0.5%	5	4	-0.4	-6	-1.4
COc1ccc(CCNC(=O)CO/N=C/c2cc3c(cc2Br)OCO3)cc1OC	-0.5%	-9	14	0.3	-11	0.4
Cc1ccc(NC(=O)CN(C)CC(=O)Nc2cccc(F)c2)cc1[N+](=O)[O-]	0.7%	-3	14	-1.3	-19	5.1
O=C(O)c1ccc(C=NN=Cc2ccco2)cc1	-1.7%	-13	-6	0.5	2	-1.3
Cc1ccc(S(=O)(=O)C2(C(=O)Nc3ccc(Br)cc3)CC2)cc1	0.6%	6	5	1.4	14	-0.9
CCC(=O)Nc1ccccc1C(=O)N1CCOCC1	-1.1%	-1	5	0.2	0	-4.3
COc1ccc(/C=C(/NC(=O)c2ccccc2)C(=O)Nc2cccc(C(=O)O)c2)cc1	0.2%	0	-2	0.4	11	-0.1
Cc1ccc2c(c1)cc(CN(Cc1ccc3c(c1)OCO3)C(=O)c1cnccn1)c1nnnn12	-3.2%	-5	6	3.2	2	-2.8
Cc1ccccc1-n1cc(C(=O)c2cc(Cl)ccc2O)cc(C#N)c1=O	?	-4	0	0.1	-1	4.8
COc1cc2c(cc1OC)CC(=O)N(C)CC2	4.8%	8	4	-0.5	-1	-6.4
Cn1c(=O)n(C)c2cc(NS(=O)(=O)c3ccc(C(C)(C)C)cc3)c(NCc3ccccc3)cc21	1.4%	-5	nt	-0.2	nt	nt
CCOC(=O)Cc1nnc(NC(=O)C(CC)Sc2nnc3c4ccccc4n(C)c3n2)s1 (centres undefined)	-5.8%[38.3 µM]	-11	-71*	0.1	?	4.9
COc1ccc2c(c1)Cc1sc(NC(=O)c3cccnc3)nc1-2	2.8%	-9	nt	0.9	1	4.9
CCN(CC)c1ccc(/C=N/OCC(=O)Nc2cccc(C)c2)cc1	2.3%	-1	-14	1.6	-10	-1.7
COc1cccc(C(=O)Nn2cnnc2)c1	-1.2%	-9	3	0.8	11	-1.5
O=C(Nc1ccccc1)C1CCOC1=O (centres undefined)	0.5%	11	7	1.8	1	-0.9
CCC(C)NC(=O)C1CCN(c2nc(C)cc(C)n2)CC1 (centres undefined)	3.6%[38.3 µM]	-1	43	-0.7	26	-1.9
CN(CCc1ccccn1)C1CCCN(S(=O)(=O)c2ccccc2Cl)C1 (centres undefined)	-0.5%	0	1	1.8	3	4.3
CCCCc1ccc(NC(=O)CSc2nc(=O)n(CCN3CCOCC3)c3c2CCC3)cc1	0.7%	-4	7	0.0	3	-3.9
CC(=O)N1CCN(S(=O)(=O)c2cccc(C(=O)Nc3ccc(F)c(F)c3)c2)CC1	-0.1%	36	1	0.1	3	-0.9
Cc1ccc(S(=O)(=O)N2CCOCC2)cc1NC(=O)COC(=O)Cc1ccccc1	-3.4%	-11	1	-0.7	3	-1.1
O=C(c1ccc2ncsc2c1)N1CCN(c2ccccc2Cl)CC1	2.4%	?	-12	-0.5	-10	7.4
CCc1cccc(CC)c1-n1c(-c2cccnc2)n[nH]c1=S	-0.8%	1	2	0.0	-3	-0.2
COc1ccc(OC)c(C2=NOC(C(=O)NCc3ccco3)C2)c1 (centres undefined)	12%	6	1	-0.9	-3	-1.2
CC1(C(=O)NNC(=O)C2CCCCC2)CC1(Cl)Cl (centres undefined)	1.1%	2	-2	0.1	11	1.9
O=C(CSc1nnc(-c2ccccc2)o1)Nc1ccccc1F	1.9%	50	-13	1.0	7	-9.4
COc1ccc(C(Nc2ccc(S(=O)(=O)NCC3CCCO3)cc2)C(=O)NC(C)(C)C)cc1OC (centres undefined)	0.0%	2	21	0.8	15	-6.3
Cc1ccc(-c2nnn3c2nc(NCCc2ccc(S(N)(=O)=O)cc2)c2ccccc23)cc1	13%	6	0	-0.8	4	2.6
N#CCSc1ccccc1NC(=O)COC(=O)CCNC(=O)c1ccc([N+](=O)[O-])cc1	1.1%	12	3	2.8	0	1.6
COc1cc(/C=C/C(=O)OCC(=O)Nc2c(C)n(C)n(-c3ccccc3)c2=O)cc(OC)c1OC	-0.2%	2	-2	-0.2	-2	-2.7
COc1ccc(C(CCO)NC(=O)c2cccs2)cc1OC (centres undefined)	-0.7%	0	-4	0.0	-9	-3.3
O=C(COc1ccc(F)cc1)NCCN1CCCC1	1.0%	1	2	0.0	9	-3.0
CCNC(=O)c1c(NC(=O)c2nc(S(=O)(=O)CC)ncc2Cl)sc2c1CCCC2	7.1%	-2	nt	1.0	nt	nt
Cc1ccc(-c2c(C)n([O-])c3c([n+]2=O)CCCC3)o1	-0.1%	-2	-1	-1.0	-2	-0.8

# Screens deposited in PubChem BioAssay by National Center for Advancing Translational Sciences (NCATS).
